Source: PubChem
Rango dissoc inh – qHTS Assay for Inhibitors of RanGTP induced Rango (Ran-regulated importin-beta cargo) - Importin beta complex dissociation; Potency, µM (highest dose often 46.1 µM), without a hit: top-dose activity change, negative = inhibition; AID 540253, 2011; Biochemical FRET Rango-importin beta, RanGTP-induced dissociation; 340,000 tested, 0.071% active; Snurportin-1 (Homo sapiens) + GTP-binding nuclear protein Ran (Homo sapiens) + Importin …; active means falling FRET ratio curve, often poorly fitted, with flat reads before Ran was added; inconclusive means other falling curves, or compound fluorescence or quenching; inactive means flat or rising ratio curve;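 also: potency is read from the fitted curve at half-maximal effect; % of control where 0% means no effect; nearly all actives have a fitted effect of over 45% in size; -100% = wells without RanGTP and RCC1; the record marks most hits as doubtful in a second field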
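Compounds sat 5 min at room temperature with 0.1 uM Rango biosensor plus 0.25 uM importin beta, then FRET pre-read. RanGTP-RCC1 (0.6 uM Ran, 2mM GTP, 0.2 uM RCC1) added for 45 min, and the CFP/YFP post-read measured blocked complex dissociation.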
Rango-impB inh – qHTS Assay for Inhibitors of Rango (Ran-regulated importin-beta cargo) - Importin beta complex formation | Importin subunit beta-1 (Homo sapiens), Q14974 | Rango CFP/YFP FRET sensor + importin beta, 45 min | Potency, µM (titrated, usually from 92.2 µM), without a hit: top-dose inhibition of complex formation | 340,000 tested, 0.031% active | AID 540263, 2011; active = rising FRET ratio curve, often small or poorly fitted; inconclusive = mostly compound fluorescence or quenching in the first reads; inactive = flat curves in all reads;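 also: potency is read from the fitted curve at half-maximal effect; 0% = DMSO wells and 100% = buffer wells lacking importin beta; nearly all actives have a fitted effect of over 15% in size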
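FRET biosensor (snurportin 1 IBB flanked by EYFP and cerulean), 50 nM, with compound 5 min, then 0.125 microM importin beta in PBS, 1 mM DTT, 0.02% Tween-20, 0.1% BSA. CFP/YFP ratio read after 45 min at room temperature; pre-read flags interference.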
GLA inh pH 4.5 – qHTS Assay for Inhibitors of Human alpha-Galactosidase at pH 4.5; activity change, negative = inhibition, % at 105 µM; purified enzyme, 4-MU-alpha-Gal fluorescence, pH 4.5; 230,000 tested, under 10 active; Alpha-galactosidase A (Homo sapiens), P06280; inconclusive = small, poorly fitted or top-dose-only inhibition, or a rising curve; inactive = flat fitted curve, though single readings scatter; no compound was filed as active;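 also: 0% = full activity with enzyme and -100% = basal without enzyme; dose as in the result columns while the protocol names 77 µM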
Target sequence (P06280 whole entry, looked up): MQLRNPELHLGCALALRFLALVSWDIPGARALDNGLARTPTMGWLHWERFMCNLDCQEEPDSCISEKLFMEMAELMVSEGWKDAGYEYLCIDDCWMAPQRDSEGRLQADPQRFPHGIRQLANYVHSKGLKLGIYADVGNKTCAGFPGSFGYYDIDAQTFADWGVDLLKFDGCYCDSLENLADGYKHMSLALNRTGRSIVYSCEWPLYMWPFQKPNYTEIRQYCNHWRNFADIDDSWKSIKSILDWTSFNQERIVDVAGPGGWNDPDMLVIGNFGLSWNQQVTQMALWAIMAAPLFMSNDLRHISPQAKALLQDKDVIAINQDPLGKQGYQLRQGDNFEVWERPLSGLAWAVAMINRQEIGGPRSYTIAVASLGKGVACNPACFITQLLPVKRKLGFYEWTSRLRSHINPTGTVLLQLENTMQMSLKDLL
miR-21 reporter – qHTS Assay for Modulators of miRNAs and/orActivators of miR-21; HeLa miR-21 FLuc reporter, luciferase, 48 h; Potency, µM (doses to about 38.3 µM), for the others: top-dose reporter change, positive = more light; 340,000 tested, under 10 active; active = well fitted rising curve with a large enough effect; inconclusive = small, poorly fitted or top-dose-only effect; inactive = no such curve, though single readings can be large or run the other way;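 also: % of control where 0% means no effect; miR-21 action dims this reporter so a rising signal means less miR-21 action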
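Using DMEM plus 10% FBS, HeLa miR-21-FLuc cells are incubated with test compounds (final up to about 40uM) for 48 hours; firefly luciferase signal is then imaged following reagent-mediated lysis.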
* = called active by the depositor; ? = inconclusive; . = no result given; & = joins results of further samples. Some of the compounds tested; the hit share may differ from the screen's.

SMILES	Rango dissoc inh	Rango-impB inh	GLA inh pH 4.5	miR-21 reporter
COc1ccc(C(=O)C2CCCN(Cc3c(F)ccc(F)c3F)C2)c(OC)c1 (stereo not given)	9%	0.5%	.	-1%
Cc1ccccc1S(=O)(=O)Cc1ccc(C(=O)NCc2ccccc2)o1	-3%	0.6%	.	3%
CCOC(=O)Cn1nnnc1C(C(C)C)N(Cc1cccs1)Cc1cc2cc(C)ccc2[nH]c1=O (stereo not given)	-5%	?	-12	13%
CCOC(=O)Nc1ccc2c(c1)N(C(=O)C(C)N1CCCC1)c1ccccc1CC2 (stereo not given)	19%	-1.6%	-4	0%
COC(=O)c1ccc(NC(=O)CSc2n[nH]c(-c3ccncc3)n2)cc1	-6%	0.6%	6	-5%
CN(C)c1ccc(/C=N/n2ncc3ccccc32)cc1	?	?	4	-46%
COc1cc(C2C(C(=O)c3ccco3)=C(O)C(=O)N2CC2CCCO2)ccc1O (stereo not given)	-4%	-0.4%	.	0%
O=C1c2ccccc2-c2cccc(C(=O)N3CCCCC3)c21	-4%	3.3%	-17	-6%
CCCNC(=O)Nc1ccccc1SC	29%	-2.0%	5	-3%
COc1ccccc1CNS(=O)(=O)c1c(C)[nH]c(C)c1C(=O)N1CCCCC1	1%	1.0%	.	0%
COc1cccc(NC(=O)CN(C)C(=O)C2CCN(C(=O)c3ccccc3C)CC2)c1	-3%	4.8%	.	.
O=C(CN(c1ccccc1F)S(=O)(=O)c1ccccc1)NC1CCCCCC1	22%	-1.5%	2	-4%
COc1ccc(S(=O)(=O)N2CCN(C)CC2c2ccccc2)cc1OC (stereo not given)	9%	0.2%	.	.
CCCCNS(=O)(=O)c1ccc2nc(SCC(=O)Nc3sccc3C#N)[nH]c2c1	33%	?	-2	29%
CC(Oc1ccccc1)C(=O)Nc1nc2c(s1)C(=O)CC(C)(C)C2 (stereo not given)	-4%	-6.1%	-18	0%

Five entries from above, set out differently:
Structure | Rango dissoc inh | Rango-impB inh | GLA inh pH 4.5 | miR-21 reporter
CCOC(=O)Nc1ccc2c(c1)N(C(=O)C(C)N1CCCC1)c1ccccc1CC2 (stereo not given) | 19% | -1.6% | -4 | 0%
COC(=O)c1ccc(NC(=O)CSc2n[nH]c(-c3ccncc3)n2)cc1 | -6% | 0.6% | 6 | -5%
CN(C)c1ccc(/C=N/n2ncc3ccccc32)cc1 | ? | ? | 4 | -46%
COc1cc(C2C(C(=O)c3ccco3)=C(O)C(=O)N2CC2CCCO2)ccc1O (stereo not given) | -4% | -0.4% | . | 0%
O=C1c2ccccc2-c2cccc(C(=O)N3CCCCC3)c21 | -4% | 3.3% | -17 | -6%

Two of the compounds above, with values ahead of the structure:
Rango dissoc inh | Rango-impB inh | GLA inh pH 4.5 | miR-21 reporter | Molecule
-4% | 3.3% | -17 | -6% | O=C1c2ccccc2-c2cccc(C(=O)N3CCCCC3)c21
-6% | 0.6% | 6 | -5% | COC(=O)c1ccc(NC(=O)CSc2n[nH]c(-c3ccncc3)n2)cc1

Next section:
SMILES	Rango dissoc inh	Rango-impB inh	GLA inh pH 4.5	miR-21 reporter
CC1C(=O)N2CCCc3cc(S(=O)(=O)NCc4ccccc4Cl)cc1c32 (stereo not given)	26%	-0.1%	.	-1%
COc1ccc(N(C(=O)C(C)C)S(=O)(=O)c2ccc3c(c2)n(C)c(=O)n3C)cc1	2%	?	-2	-7%
Cc1ccc2nc(Cl)c3cc(C(=O)NCCCN4CCCC4)sc3c2c1	-7%	5.7%	-5	-27%
Cn1c(NC(=O)c2ccc3c(c2)OCO3)cc(=O)n(C)c1=O	-19%	4.7%	-27	-5%
CCCCn1c(N)c(N(CC)C(=O)c2ccc(N3CCCC3=O)cc2)c(=O)[nH]c1=O	17%	-1.0%	.	.
O=C(Nc1ccc(Cl)cc1)Nc1ccccc1C(=O)O	0%	0.2%	7	-1%
COCCN1C(=O)C(=O)/C(=C(/O)c2ccc(S(=O)(=O)N3CCOCC3)cc2)C1c1cccc([N+](=O)[O-])c1 (stereo not given)	-6%	2.9%	.	2%
CCN(CC)C(=O)C(=O)N/N=C/c1ccc(C(=O)O)cc1	6%	0.2%	4	2%
CCCCOC(=O)c1ccc(NC(=O)c2c(N)n(C)c(=O)[nH]c2=O)cc1	?	0.5%	.	.
CCc1cccc(N(C(=O)c2csnn2)C(C(=O)NC(C)(C)CC)c2ccccn2)c1 (stereo not given)	-3%	-1.5%	-4	-2%
O=C(CN1CCCCCC1)Nc1ccccc1C(=O)Nc1ccccc1	12%	-2.0%	.	.
COC1(OC)N=C(N)C2(C#N)C(c3cccc(Oc4ccccc4)c3)C12C#N (stereo not given)	0%	-1.7%	4	0%
CCCn1c(-c2cccs2)nc2nc3ccccc3nc21	?	?	?	-2%
COc1ccc(/C=C(\NC(=O)c2ccccc2)C(=O)NCC2CCCO2)cc1 (stereo not given)	0%	1.3%	.	2%
O=C(COc1ccc(Cl)cc1)NCCSc1ccccc1	7%	1.7%	-4	-1%
Cc1cc(/C=N/NC(N)=S)c(O)c(/C=N/NC(N)=S)c1	?	?	-2	-3%
CCCC1CCC(c2ccc(C(=O)NN)cc2)CC1 (stereo not given)	0%	0.7%	2	-1%
CCOc1ccc(C(=O)NC2CCN(C(=O)NCc3ccccc3)CC2)cc1	-12%	-1.6%	3	-4%
O=C(CCc1ccc(S(=O)(=O)NCc2ccccc2)cc1)N1CCN(Cc2ccc3c(c2)OCO3)CC1	-2%	0.0%	0	11%
CCN(CC)CCCNC(=O)c1cn(C)c2ccc(S(=O)(=O)N(C)C3CCCCC3)cc2c1=O	0%	-1.2%	.	-1%&-13%
COc1ccccc1OCC(=O)Nc1cc2c(cc1C(=O)O)OCCCO2	0%	-0.6%	.	3%
C=CC[n+]1ccc2ccccc2c1C	28%	-7.1%	2	-1%
Cn1nnc(NC(=O)c2ccccc2)n1	2%	-2.5%	13	-9%
Cc1onc(-c2ccccc2)c1C(=O)Nc1ccc(S(=O)(=O)N2CCCCC2)cc1	-12%	-4.9%	-1	-2%
Cc1cccc(C(=O)OC2CCOC2=O)c1O (stereo not given)	0%	-0.8%	.	0%
COc1ccc(C2c3[nH]c4ccccc4c3CCN2CCCn2cccn2)c(C)c1C (stereo not given)	?	?	-1	17%
COCCn1c(SCc2ccccc2F)nc2ccccc2c1=O	-26%	2.8%	-5	-9%
COc1ccc(NC(=O)c2ccc3[nH]c(C)c(C)c3c2)cc1	-8%	-4.1%	.	-56%
Cc1c([N+](=O)[O-])cc(N2C(=O)C=CC2=O)cc1[N+](=O)[O-]	22%	-3.3%	.	.
COc1ccc(N2C(=O)CCC2=O)c(OC)c1	31%	-3.0%	-7	1%
COc1ccc(-n2c3c(cc(C(=O)NC4CCSC4=O)c2=O)C(=O)CC(C)(C)C3)cc1 (stereo not given)	9%	2.0%	-14	-1%
Cc1cc(=O)[nH]c(N/N=C/c2ccccc2Cl)n1	-4%	-0.4%	.	-9%
COC(=O)c1ccc(NC2(C#N)C(=O)Nc3ccccc32)cc1 (stereo not given)	-3%	-0.4%	0	11%
NC(=O)c1c(NC(=O)CSc2nnc(-c3ccco3)n2N)sc2c1CCCC2	-19%	?	-6	-5%
COCCCN(CC(=O)Nc1ccc(N2CCOCC2)cc1)S(=O)(=O)c1ccc(Cl)cc1	-13%	1.4%	-6	0%
CC1(C)CC(O)(CCNCc2ccc3c(c2)OCO3)CCO1 (stereo not given)	-7%	-1.7%	1	-5%
Cc1ccc(S(=O)(=O)N2Cc3ccccc3CC2C(=O)NC(C)(C)C)cc1 (stereo not given)	?	0.1%	.	-2%
COc1cc(OC)cc(C(=O)N2CCC(N3CCCCCC3)CC2)c1	-12%	0.3%	-9	-14%
Cc1cccc(NC(=O)C2CCN(S(=O)(=O)c3ccc(Cl)cc3)CC2)n1	-3%	-3.5%	.	.
O=C(C1CCN(S(=O)(=O)c2cccc3cccnc23)CC1)N1CCN(C2CCCCC2)CC1	-1%	-0.3%	0	0%
COC(=O)CSc1nc(NC#N)nc(NC(C)(C)C)n1	15%	2.8%	-2	1%
CCC(=O)N[C@@H]1CC(C(C)(C)NC(=O)CC)CC=C1C (stereo not given in full)	-15%	-4.3%	4	-3%
CCOC(=O)N1CCN(Cc2nc3cc(NC(=O)c4ccco4)ccc3n2C)CC1	-15%	-0.3%	.	-15%
COc1ccc(S(=O)(=O)Nc2ccccc2C(=O)NCc2ccco2)cc1	-13%	-0.9%	1	-2%
CC(NC(=O)CSC(=S)N(C)C)C12CC3CC(CC(C3)C1)C2 (stereo not given)	-4%	?	-6	-9%

Record cards (already shown). Order of values: Rango dissoc inh, Rango-impB inh, GLA inh pH 4.5, miR-21 reporter
Record of `CC(NC(=O)CSC(=S)N(C)C)C12CC3CC(CC(C3)C1)C2` (stereo not given) : -4%, ?, -6, -9%
Record of `Cc1cccc(NC(=O)C2CCN(S(=O)(=O)c3ccc(Cl)cc3)CC2)n1` : -3%, -3.5%, ., .
Record of `COCCCN(CC(=O)Nc1ccc(N2CCOCC2)cc1)S(=O)(=O)c1ccc(Cl)cc1` : -13%, 1.4%, -6, 0%
Record of `COC(=O)c1ccc(NC2(C#N)C(=O)Nc3ccccc32)cc1` (stereo not given) : -3%, -0.4%, 0, 11%
Record of `O=C(C1CCN(S(=O)(=O)c2cccc3cccnc23)CC1)N1CCN(C2CCCCC2)CC1` : -1%, -0.3%, 0, 0%

Next records
SMILES	Rango dissoc inh	Rango-impB inh	GLA inh pH 4.5	miR-21 reporter
O=S1(=O)CCC(N=Nc2c(O)n(Cc3ccccc3)c3ccccc23)C1 (stereo not given)	8%	-1.5%	-4	-2%
Cc1ccc(N(C)S(=O)(=O)c2ccc3[nH]cc(C(=O)NCCCN4CCOCC4)c(=O)c3c2)cc1C	-9%	3.6%	.	9%
OCC(C#CCN1CCCCC1)NCc1ccccc1 (stereo not given)	19%	2.4%	11	-1%
Cc1ccc(S(=O)(=O)N2CCN(C(=O)CCC(=O)Nc3ccc(F)cc3F)CC2)cc1	15%	1.4%	.	.
CC(C)N1C(=O)C(=O)N(CC(=O)N2CCc3ccccc32)C1=O	-8%	1.9%	.	.
S=C(NCC1CCCO1)c1ccc(Br)cc1 (stereo not given)	16%	-0.3%	.	-20%
CC(=O)OC(C(=O)NC1CCCCC1)c1ccccc1Cl (stereo not given)	13%	0.4%	2	2%
O=C(Nc1ccc(Br)cc1)c1cc(-c2ccc3c(c2)OCO3)on1	0%	-1.2%	.	-1%
O=c1cc(Nc2ccc3c(c2)OCO3)[nH]c(=O)n1-c1ccc(Br)cc1	0%	?	-8	-1%
CCC(C)c1ccc(NC(=O)C2CC3CCC2C3)cc1 (stereo not given)	1%	1.0%	.	.
Cc1[nH]c2ccc(F)cc2c(=O)c1SC(F)(F)C(F)C(F)(F)F (stereo not given)	11%	-0.1%	8	12%
COc1ccc2[nH]c(C(=O)O)c(NS(=O)(=O)c3ccc(Cl)s3)c2c1	40%	3.0%	5	4%
CC(C)OC(=O)C1C2C=CC3(CN(CC4CCCO4)C(=O)C13)O2 (stereo not given)	-11%	0.9%	7&2	-2%&-6%
CC(C)C[C@H](NC(=O)c1nc[nH]c1C(=O)N1CCN(c2ccccc2)CC1)C(=O)OC(C)(C)C	-7%	?	2	16%
CCc1ccc(NC(=O)Nc2c(C)n(C)n(-c3ccccc3)c2=O)cc1	15%	-4.8%	-5	1%
CCCCc1ccc(NC(=O)CN2NS(=O)(=O)c3ccccc3C2=O)cc1	-10%	-0.6%	-4	0%
Cc1ccc(C(=O)Nc2cc(C)c(OCC(=O)N3CCOCC3)c(C)c2)cc1	-8%	?	-15	0%
CCc1cccc2c(C(=S)N3CCCC3)c[nH]c12	-8%	2.0%	1	-24%
Cc1nnsc1S(=O)c1ccc(Cl)cc1 (stereo not given)	-2%	-4.0%	.	20%
O=C(O)CC1(CC(=O)NCc2csc(-c3cccs3)n2)CCCCC1	-13%	-2.3%	11	-9%
CC(C)c1ccc(Nc2cnn(C34CC5CC(CC(CC(=O)O)(C5)C3)C4)c(=O)c2Cl)cc1	5%	2.2%	3	-1%
